Bioassay records as filed in PubChem.
Vif TR-FRET = HIV-1 Vif–A3G interaction blockers – biochemical, TR-FRET, GST-Vif 1-94, biotin-A3G peptide, dose response retest, primary screen (AID 1117319); TR-FRET GST-Vif / biotin-A3G peptide binding; higher % means a stronger effect; test concentration not given here; strong numbers were not always called active; inhibition, %; hits with a dose series show IC50 in µM; 260,000 compounds, 0.57% hits;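 active = above the screen mean plus three standard deviations and confirmed in dose response; inconclusive = results disagree or hit not tested in dose response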;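 also: Vif residues 1-94 fused to GST binding biotinylated APOBEC3G peptide 110-148; 0% = full assay without inhibitor and 100% = GST in place of GST-Vif; retest series ran down from 100 µM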
Ecoli growth = blocks Escherichia coli growth. 330,000 compounds, 0.21% hits. AID 1053175. OD600 absorbance (test concentration not listed). OD600, 23 h; hits give low values;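 active = OD600 absorbance below the run mean of sample wells minus 3.6 SD, in any replicate, cut at about 0.56 in these data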;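 also: stock transfer was 300 nL into about 60 µL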
HNF4A DNA FP = change in binding of human HNF4 alpha to DNA; P41235; HNF4a-FITC DNA binding, fluorescence polarization, 1 h; activity change, % at 10 µM; 360,000 compounds, 0.3% hits; in the data active = activity change above about 30%, passing the limit was not always enough;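 also: controls were the assay level and a saturating level of protein; the project sought stronger binding though the title names inhibitors; some compounds called inactive have numbers as strong as hits; positive values seem to mean higher polarization but the record does not say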
Target sequence (P41235 whole entry, looked up): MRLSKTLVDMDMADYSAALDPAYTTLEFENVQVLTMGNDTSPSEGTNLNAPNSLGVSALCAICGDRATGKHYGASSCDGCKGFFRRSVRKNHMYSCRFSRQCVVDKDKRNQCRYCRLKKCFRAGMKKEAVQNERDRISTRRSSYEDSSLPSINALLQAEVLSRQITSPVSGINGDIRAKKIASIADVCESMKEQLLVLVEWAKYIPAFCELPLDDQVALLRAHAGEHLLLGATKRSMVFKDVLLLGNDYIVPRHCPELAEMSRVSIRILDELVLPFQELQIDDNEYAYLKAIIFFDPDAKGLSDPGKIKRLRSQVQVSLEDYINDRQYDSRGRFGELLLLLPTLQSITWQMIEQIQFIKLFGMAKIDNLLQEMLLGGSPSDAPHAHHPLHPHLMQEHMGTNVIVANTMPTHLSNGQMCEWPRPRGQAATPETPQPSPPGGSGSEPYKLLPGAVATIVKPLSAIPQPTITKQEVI
* marks the source's active call; other numbers are inactive results; ? = inconclusive; . = not tested or not shown.

SMILES	Vif TR-FRET	Ecoli growth	HNF4A DNA FP
COC(=O)C1=C(c2ccc(F)cc2OCc2ccccc2)CC2CCC1N2C(=O)N1CCC(O)CC1 (stereo not drawn)	.	0.7	.
COc1cc2c(cc1O)CC1NCCc3cc4c(c-2c31)OCO4 (stereo not drawn)	.	0.55	.
COc1cc2c3cc1Oc1c(OC)c(OC)cc4c1C(Cc1ccc(cc1)Oc1cc(ccc1O)CC3N(C)CC2)N(C)CC4 (stereo not drawn)	.	0.65	.
COC(=O)C1=C(c2ccc(Cl)c(C(F)(F)F)c2)CC2CCC1N2C(=O)NCc1ccco1 (stereo not drawn)	.	0.69	.
COC(=O)C1=C(c2ccc(-c3ccccc3)c(F)c2)CC2CCC1N2C(=O)N1CCC(C)CC1 (stereo not drawn)	.	0.72	.
COC(=O)C1=C(c2cccc(OC)c2OC)CC2CCC1N2C(=O)NCc1ccco1 (stereo not drawn)	.	0.7	.
COC(=O)C1=C(c2ccc(OC)c(OC)c2)CC2CCC1N2C(=O)NCCCOC(C)C (stereo not drawn)	.	0.7	.
COC(=O)C1=C(c2cccc(OC)c2OC)CC2CCC1N2C(=O)NCCO (stereo not drawn)	.	0.69	.
COC(=O)C1=C(c2ccc(OC(F)(F)F)cc2)CC2CCC1N2C(=O)N1CCOCC1 (stereo not drawn)	.	0.67	.
COC(=O)C1=C(c2c(C)noc2C)CC2CCC1N2C(=O)NCCCOC(C)C (stereo not drawn)	.	0.69	.
COC(=O)C1=C(c2ccc(F)cc2F)CC2CCC1N2C(=O)N1CCC(C)CC1 (stereo not drawn)	.	0.69	.
COC(=O)C1=C(c2ccc3ccccc3c2)CC2CCC1N2C(=O)NCCCOC(C)C (stereo not drawn)	.	0.7	.
COC(=O)C1=C(c2ccc(C(C)=O)cc2)CC2CCC1N2C(=O)NC(C)C (stereo not drawn)	.	0.65	.
COC(=O)C1=C(c2c(C)noc2C)CC2CCC1N2C(=O)NCC1CC1 (stereo not drawn)	.	0.68	.
COC(=O)C1=C(c2cccc(OC)c2OC)CC2CCC1N2C(=O)N1CCCCC1 (stereo not drawn)	.	0.69	.
COC(=O)C1=C(c2cc3ccccc3o2)CC2CCC1N2C(=O)NCCCOC(C)C (stereo not drawn)	.	0.67	.
CC(=O)OC1CC[C@@]2(C)C(=CCC3C2CC[C@]2(C)C(=O)CCC32)C1 (stereo partly drawn)	.	0.67	.
CC=C1C[N+]2(C)CCC34C(=C(C=O)C1CC32)Nc1ccccc14 (stereo not drawn)	.	0.69	.
COC(=O)C1=C(c2ccc(-c3ccccc3)c(F)c2)CC2CCC1N2C(=O)NCc1ccc(F)cc1 (stereo not drawn)	.	0.72	.
COC(=O)C1=C(c2ccc(-c3ccccc3)c(F)c2)CC2CCC1N2C(=O)NCCOc1ccccc1Cl (stereo not drawn)	.	0.73	.
CN1C(=O)CN=C(c2ccccc2)c2cc([N+](=O)[O-])ccc21	-8%	.	.
C[C@H]1O[C@@H](O[C@H]2[C@@H](O)C[C@H](O[C@H]3[C@@H](O)C[C@H](O[C@H]4CC[C@@]5(C)[C@H](CC[C@@H]6[C@@H]5CC[C@]5(C)[C@@H](C7=CC(=O)OC7)CC[C@]65O)C4)O[C@@H]3C)O[C@@H]2C)C[C@H](O)[C@@H]1O	?	.	.
CCOC(=O)[C@]12Cc3cc(C)ccc3[C@H]1N(CCC(=O)OC)C(=O)c1ccccc12	.	.	-0.8
Cc1ccccc1-c1ccc2c(c1)CNCc1cnnn1-2	.	.	-0.1
CCOC(=O)[C@]12Cc3cc(OC)ccc3[C@H]1N(C)C(=O)c1ccccc12	.	.	-1.5
O=C1CCC2(O)C3Cc4ccc(O)c5c4C2(CCN3Cc2ccoc2)C1O5 (stereo not drawn)	.	.	-0.2
CCOC(=O)[C@]12Cc3cc(Cl)ccc3[C@H]1N(C(C)C)C(=O)c1ccccc12	.	.	3.9
CCOC(=O)[C@]12Cc3ccccc3[C@H]1N(C(C)C)C(=O)c1ccccc12	.	.	1.6
c1ccc2oc(-c3ccc4c(c3)CNCc3cnnn3-4)cc2c1	.	.	-3.9
COC(=O)C1(F)C(=O)NC(=O)NC1O (stereo not drawn)	.	.	0.0
CCOC(=O)[C@]12Cc3cc(OC)ccc3[C@H]1N(C(C)C)C(=O)c1ccccc12	.	.	-2.3
Cc1cccc(C)c1-n1nnnc1C(c1cccc2ccccc12)N1CCC2(CC1)C(=O)NCN2c1ccccc1 (stereo not drawn)	.	.	1.4
COc1ccc(C(=O)CC(c2ccc3c(c2)OCO3)c2c(O)c3ccccc3oc2=O)cc1OC (stereo not drawn)	.	.	2.2
O=c1[nH]c2ccccc2n1C1CCN(C(c2nnnn2-c2ccc3c(c2)OCCO3)C2CC2)CC1 (stereo not drawn)	.	.	1.3
CSCCC(c1nnnn1C1CCCCC1)N1CCC2(CC1)C(=O)NCN2c1ccccc1 (stereo not drawn)	.	.	0.5
O=c1[nH]c2ccccc2n1C1CCN(Cc2ccc(-c3nc4ccccc4nc3-c3ccccc3)cc2)CC1	.	.	13
CCN1/C(=C/C=C/C2=[N+](CC)c3ccccc3C2(C)C)C(C)(C)c2ccccc21	.	.	-94
COc1ccc(CN2Cc3cc(-c4ccccc4)ccc3-n3nncc3C2)cc1	.	.	0.1
O=C1NCN(c2ccccc2)C12CCN(C(c1cccc3ccccc13)c1nnnn1C1CCCCC1)CC2 (stereo not drawn)	.	.	-0.9
CSCCC(c1nnnn1C1CCCC1)N1CCC2(CC1)C(=O)NCN2c1ccccc1 (stereo not drawn)	.	.	0.3
O=P(OC1=CCCCC1)(c1ccccc1)c1ccccc1	.	.	3.3
Cc1nn(CC(C)C)c(Cl)c1C(=O)NC1CCCC1	.	.	3.6
CCCCn1nnnc1C(CCc1ccccc1)N1CCC(n2c(=O)[nH]c3ccccc32)CC1 (stereo not drawn)	.	.	-0.8
Cc1nc2cc(OC(=O)N(C)Cc3cccc(-c4ccncc4)c3)ccc2s1	.	.	3.1
O=C(CCc1ccccc1)N1Cc2cc(N3CCOCC3)ccc2-n2nncc2C1	.	.	-6.7
O=C1c2ccccc2-n2nnnc2C2c3ccccc3-n3nncc3CN12 (stereo not drawn)	.	.	-2.6
NC(Cc1ccc(Cl)cc1)c1csc(Nc2ncccn2)n1 (stereo not drawn)	.	.	-0.7
CCC(c1nnnn1Cc1ccccc1)N1CCC(n2c(=O)[nH]c3ccccc32)CC1 (stereo not drawn)	.	.	-1.6
C=CC12CN(C)C3C4COC(CC41)C1(C(=O)Nc4ccccc41)C32 (stereo not drawn)	.	.	-0.5
CC1CN1c1cc2c(c3c1ccn3C)C1CCC2C1 (stereo not drawn)	.	.	-0.2
O=C1NCN(c2ccccc2)C12CCN(C(c1cccc3ccccc13)c1nnnn1Cc1ccccc1)CC2 (stereo not drawn)	.	.	2.8
Fc1cccc(-c2ccc3c(c2)CNCc2cnnn2-3)c1	.	.	-1.9
O=c1[nH]c2ccccc2n1C1CCN(C(CCc2ccccc2)c2nnnn2-c2ccc3c(c2)OCCO3)CC1 (stereo not drawn)	.	.	0.2
CN(C)c1cccc(CN2CCN(c3ccccc3)CC2)c1	.	.	-1.6
COc1cccc(C(c2nnnn2C2CCCCC2)N2CCC3(CC2)C(=O)NCN3c2ccccc2)c1OC (stereo not drawn)	.	.	-2.7
COOCC1(C(=O)OC)C[C@H](c2ccc(OC)cc2)N(Cc2ccccc2OC)[C@@H]1c1ccccc1C (stereo partly drawn)	.	.	-2.2
O=P1(c2ccccc2)CC=CC1	.	.	3.0
COc1ccc(-c2ccc3c(c2)CNCc2cnnn2-3)cc1	.	.	-2.0
O=c1[nH]c2ccccc2n1C1CCN(C(c2ccnc3ccccc23)c2nnnn2Cc2ccccc2)CC1 (stereo not drawn)	.	.	-0.9
O=c1[nH]c2ccccc2n1C1CCN(C(c2ccccc2)c2nnnn2Cc2ccccc2)CC1 (stereo not drawn)	.	.	-1.2
Additional entries.
SMILES	Vif TR-FRET	Ecoli growth	HNF4A DNA FP
COC(=O)C1=COC(C)C2CN3CCc4c([nH]c5cc(OC)ccc45)C3CC12 (stereo not drawn)	.	.	-4.3
CCCCn1nnnc1C(c1cccc2ccccc12)N1CCC2(CC1)C(=O)NCN2c1ccccc1 (stereo not drawn)	.	.	5.1
Clc1cccc(N2Cc3cc(N4CCOCC4)ccc3-n3nncc3C2)c1	.	.	-1.3
CSCCC(c1nnnn1-c1ccc2c(c1)OCCO2)N1CCC2(CC1)C(=O)NCN2c1ccccc1 (stereo not drawn)	.	.	2.8
CCOC(=O)[C@]12Cc3cc(OC)ccc3[C@H]1N(CCC(=O)OC)C(=O)c1cc(OC)ccc12	.	.	0.7
CC(C)CN1Cc2cc(N3CCCCC3)ccc2-n2nncc2C1	.	.	-2.7
O=C(NC1CCCCC1)N1Cc2cc(-c3ccccc3)ccc2-n2nncc2C1	.	.	7.1
CC(C)(C)n1nnnc1C(c1ccccc1)N1CCC2(CC1)C(=O)NCN2c1ccccc1 (stereo not drawn)	.	.	-1.7
COc1ccc(C(c2nnnn2C(C)(C)C)N2CCC3(CC2)C(=O)NCN3c2ccccc2)cc1 (stereo not drawn)	.	.	0.6
C[C@H]1COc2cccc(N3CCN(C)CC3)c2S(=O)(=O)N1	.	.	-2.4
O=C1NCN(c2ccccc2)C12CCN(C(c1ccccc1)c1nnnn1C1CCCC1)CC2 (stereo not drawn)	.	.	-2.9
Cc1cccc(C)c1-n1nnnc1C(c1ccccc1OC(F)(F)F)N1CCC(n2c(=O)[nH]c3ccccc32)CC1 (stereo not drawn)	.	.	-1.9
O=C1NC(=O)C(C2CCOC2=O)N1 (stereo not drawn)	.	.	3.5
COc1ccc(-n2nnnc2C(c2cccc3ccccc23)N2CCC3(CC2)C(=O)NCN3c2ccccc2)cc1 (stereo not drawn)	.	.	0.3
CCOC(=O)CNC(=O)N1Cc2cc(-c3ccccc3)ccc2-n2nncc2C1	.	.	2.7
CCC(c1nnnn1C1CCCCC1)N1CCC2(CC1)C(=O)NCN2c1ccccc1 (stereo not drawn)	.	.	2.9
Cc1cc(C(=O)OC(C)C(=O)Nc2ccccc2)c(C)n1C1CC1 (stereo not drawn)	.	.	-3.5
COC(=O)C1=C(c2ccc(OCc3ccccc3)cc2)C[C@@H]2CC[C@H]1N2C(=O)NCc1ccc(OC)cc1	.	.	-0.3
COc1ccc(CN2Cc3cc(N4CCCCC4)ccc3-n3nncc3C2)cc1	.	.	-2.2
COc1ccc(-n2nnnc2C(c2cccc(OC)c2OC)N2CCC(n3c(=O)[nH]c4ccccc43)CC2)cc1 (stereo not drawn)	.	.	2.3
Cc1cccc(C)c1-n1nnnc1C(CCc1ccccc1)N1CCC2(CC1)C(=O)NCN2c1ccccc1 (stereo not drawn)	.	.	0.8
COc1ccc(-c2nc3ccc(Br)cn3c2CC(=O)N2CCCC2)cc1OC	.	.	2.3
Cc1cccc(C)c1-n1nnnc1C(CCc1ccccc1)N1CCC(n2c(=O)[nH]c3ccccc32)CC1 (stereo not drawn)	.	.	3.1
COc1ccc(-n2nnnc2C(c2ccccc2)N2CCC3(CC2)C(=O)NCN3c2ccccc2)cc1 (stereo not drawn)	.	.	3.5

One compound at a time, from the list above.
`COc1ccc(-n2nnnc2C(c2cccc(OC)c2OC)N2CCC(n3c(=O)[nH]c4ccccc43)CC2)cc1` (stereo not drawn) is entered as Vif TR-FRET = .; Ecoli growth = .; HNF4A DNA FP = 2.3
`CCC(c1nnnn1C1CCCCC1)N1CCC2(CC1)C(=O)NCN2c1ccccc1` (stereo not drawn) is entered as Vif TR-FRET = .; Ecoli growth = .; HNF4A DNA FP = 2.9

Next entries:
SMILES	Vif TR-FRET	Ecoli growth	HNF4A DNA FP
CCOC(=O)[C@]12Cc3cc4ccccc4cc3[C@H]1N(Cc1ccccc1)C(=O)c1cc(OC)ccc12	.	.	-4.5
COC12c3ccccc3-c3ccccc3C1C(C(=O)O)C2C(=O)O (stereo not drawn)	.	.	5.0
O=c1[nH]c2ccccc2n1C1CCN(C(c2nnnn2Cc2ccccc2)C2CC2)CC1 (stereo not drawn)	.	.	-1.1
CC(C)C[C@H]1COc2cccc(N3CCN(C)CC3)c2S(=O)(=O)N1	.	.	2.9
NC(Cc1ccc(Cl)cc1)c1csc(Nc2ccccn2)n1 (stereo not drawn)	.	.	0.4
O=C1NCN(c2ccccc2)C12CCN(C(c1nnnn1-c1ccc3c(c1)OCCO3)C1CC1)CC2 (stereo not drawn)	.	.	0.1
Cc1ccc(C(O)(C(=O)OC(C)C)C(O)c2ccc(F)cc2)cc1 (stereo not drawn)	.	.	0.0
CCOC(=O)[C@]12Cc3cc(C)ccc3[C@H]1N(C1CCCCC1)C(=O)c1ccccc12	.	.	3.5
CCOC(=O)[C@]12Cc3c(cc(OC)c(OC)c3OC)[C@H]1N(CCC(=O)OC)C(=O)c1ccccc12	.	.	-3.7
COc1ccc(-n2nnnc2C(c2ccccc2OC(F)(F)F)N2CCC(n3c(=O)[nH]c4ccccc43)CC2)cc1 (stereo not drawn)	.	.	2.5
O=C1NCN(c2ccccc2)C12CCN(C(c1cccs1)c1nnnn1C1CCCC1)CC2 (stereo not drawn)	.	.	4.7
O=C(NC1CCCCC1)N1Cc2cc(N3CCOCC3)ccc2-n2nncc2C1	.	.	-0.7

This is a subset; count on the stated rates, not on these rows.
